RanGTP-Impb inh: inhibitors of RanGTP-importin-beta interaction, primary screen, biochemical, FRET, CFP-Ran, YFP-importin-beta, homogeneous. cell-free CFP-Ran/YFP-importin-beta FRET ratio. AID 2216, 2009. hit rate 1.1% among 300,000. inhibition, % (no concentration beside the values). Ran GTPase (GTP-bound) - importin-beta complex;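 active means most replicates above 15%; inconclusive means exactly half above 15%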;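 further: 0% = DMSO wells and 100% = Ran loaded with GDP instead of GTP; wells of about 40 µL received 100 nL stock; the first replicate is given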
Calb FLC: C. albicans growth inhibition with fluconazole, primary screen, CaCi-2 strain, Alamar Blue fluorescence | hit rate 0.57% among 300,000 | C. albicans CaCi-2 (fluconazole-resistant clinical isolate) + fluconazole, 48 h | growth inhibition, % (test concentration not listed) | AID 1979, 2009;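 active means most replicates above 75%; inconclusive means exactly half above 75%; inactive means most below 75%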;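 further: all wells also contain fluconazole at 8 µg/ml as a sub-toxic cotreatment; 0% = median of DMSO wells and 100% = median of geldanamycin control wells; wells of about 8 µL received 7.5 nL stock; the first replicate is given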
Ecoli rRNA inh: reduced GFP signal of wild-type E. coli, primary screen, bacterial rRNA inhibitor project, GFP/RFP fluorescence, OD600, single point. E. coli WT GFP vs humanized-ribosome RFP mutants, 24 h; stronger effect = lower value; DMSO median 0, no signal -100. hit rate 1.6% among 350,000. GFP signal change (wild-type ribosome), % (no concentration beside the values);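 active means significant combined selectivity score with lowered wild-type GFP, culture density cut under 30%, mutant RFP and density less affected; inactive means any of these conditions unmet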; further: one replicate is shown; some compounds called inactive have numbers as strong as hits
MLL AF4-AF9 inh: inhibitors of AF4 peptide binding to AF9, primary screen, biochemical, AlphaScreen, biotin-AF4 peptide, FLAG-AF9, single point; Protein AF-9 (Homo sapiens), P42568; inhibition, % at 10 µM; hit rate 0.47% among 350,000; AID 651704, 2012;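 active means every replicate reaching a set inhibition limit, whatever the replicate mean, cut at about 25% in these data; inconclusive means mean inhibition reaches that limit but some replicates miss it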;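 further: 0% = plate neutral control median and 100% = total signal loss; the record names both 10 and 1 µM as test concentration; the first replicate is given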
Target sequence (P42568 whole entry, looked up): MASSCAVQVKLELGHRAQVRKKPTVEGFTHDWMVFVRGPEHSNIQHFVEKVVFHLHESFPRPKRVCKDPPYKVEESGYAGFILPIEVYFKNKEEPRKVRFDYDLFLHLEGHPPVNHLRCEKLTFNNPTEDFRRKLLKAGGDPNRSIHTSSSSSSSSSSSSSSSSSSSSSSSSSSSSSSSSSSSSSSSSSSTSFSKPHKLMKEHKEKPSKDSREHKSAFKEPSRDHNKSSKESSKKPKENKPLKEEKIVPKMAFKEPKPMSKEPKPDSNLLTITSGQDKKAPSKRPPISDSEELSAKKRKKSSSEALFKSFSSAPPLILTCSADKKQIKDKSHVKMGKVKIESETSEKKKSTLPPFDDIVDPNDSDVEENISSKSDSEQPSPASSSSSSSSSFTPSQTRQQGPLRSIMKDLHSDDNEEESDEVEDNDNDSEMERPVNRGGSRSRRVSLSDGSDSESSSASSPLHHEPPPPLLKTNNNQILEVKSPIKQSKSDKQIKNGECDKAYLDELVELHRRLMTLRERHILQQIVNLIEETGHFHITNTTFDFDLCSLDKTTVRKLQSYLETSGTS
Bfl-1 A1 inh: caspase 3/7 activation in MEF A1-2A-BIM cells, primary screen, A1 inhibitor project, cell-based, luminescence, HTS; Caspase-Glo 3/7 luminescence, 3 h; percent of clofoctol response, vehicle zero; caspase activation, % (no concentration beside the values); hit rate 0.066% among 330,000; AID 2462, 2010;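 active means over half of replicate activation scores above 10%, or exactly half above 10 with the replicate mean above 10; inconclusive means replicate mean below 10 yet half the replicates above 10; inactive means over half of replicates below 10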;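 further: wells of about 30 µL received 50 nL stock; many hits fall short of the cut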
Vif A3G: inhibitors of Vif binding to APOBEC3G peptide, primary screen, biochemical, TR-FRET, GST-Vif 1-94, biotin-A3G peptide, dose response retest (AID 1117319). Virion infectivity factor (Human immunodeficiency virus type 1 group M subtype B (isolate …. TR-FRET GST-Vif / biotin-A3G peptide binding; higher % means a stronger effect; test concentration not given here; strong numbers were not always called active. inhibition, %, or IC50 in µM where a hit was titrated. hit rate 0.57% among 260,000;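 active means above the screen mean plus three standard deviations and confirmed in dose response; inconclusive means results disagree or hit not tested in dose response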;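 further: Vif residues 1-94 fused to GST binding biotinylated APOBEC3G peptide 110-148; 0% = full assay without inhibitor and 100% = GST in place of GST-Vif; retest series ran down from 100 µM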
Beta apoptosis: inhibitors of cytokine-induced beta cell apoptosis, primary screen, luminescence; INS-1E cytokine-induced death, ATP luminescence, 48 h; percent of positive-control rescue, neutral wells zero; protection from apoptosis, % (concentration not given with the values); hit rate 0.8% among 300,000;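 active means all replicates at 75% or more, or half of them and the mean; inconclusive means half reach 75% but not the mean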;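 further: 0% = cytokine-treated negative control wells and 100% = positive control rescue; higher means more ATP so stronger rescue from cytokine killing; wells of about 40 µL received 100 nL stock; the first replicate is given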
T cruzi repl: inhibitors of intracellular T. cruzi growth, primary screen, luminescence, NIH3T3 host cells; hit rate 1.4% among 300,000; inhibition, % (concentration not given with the values); T. cruzi beta-gal in NIH3T3, 90 h;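 active means mean inhibition across valid replicates above about 55%, limit read from the data; inconclusive means mean below that limit but half or more replicates reach it; inactive means mean below it, under half of replicates reach it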;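 further: signal also drops with host cell toxicity which is not excluded here; 0% = plate median of DMSO wells and 100% = zero luminescence signal; higher percent means less beta-gal luminescence so fewer parasites; stock transfer was 50 nL into about 50 µL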
Ecoli rRNA inh OD600: further read-out of Ecoli rRNA inh, marked with its call; OD600 change, %; measured here: OD600 growth;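 optical density of the mix in the first replicate; 0 = DMSO median and -100 = no signal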
Ecoli rRNA inh RFP: also measured in Ecoli rRNA inh; calls as there; RFP signal change, %; measured here: RFP humanized mutant strains;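 first replicate; 0 = DMSO median and -100 = no signal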
* marks the source's active call; other numbers are inactive results; ? = inconclusive; . = no result given; & = joins results of further samples.

molecule,RanGTP-Impb inh,Calb FLC,Ecoli rRNA inh,Ecoli rRNA inh OD600,Ecoli rRNA inh RFP,MLL AF4-AF9 inh,Bfl-1 A1 inh,Vif A3G,Beta apoptosis,T cruzi repl
O=C(COC(=O)COc1ccccc1)Nc1ccccc1OC(F)F,0.0,1.1,.,.,.,.,?,-5.7%,-4.0,-0.5
O=C(COc1ccc2c(c1)OCO2)NCc1cccs1,.,.,7.7,13.5,5.6,-5.6,0.6,-0.5%,1.4,.
CC1CC(C)CN(S(=O)(=O)c2ccc3c(c2)CCN3C(=O)CCC(=O)O)C1 (stereo not given),12.5,-6.0,.,.,.,.,0.4,.,-3.8,25.1
COc1ccc(CNc2nc(SCc3cc(=O)n4cc(Cl)ccc4n3)nc3ccccc23)cc1,3.6,3.7,-12.8,-29.0,-3.9,4.6,0.1,-12.8%,-5.1,10.8
CCN(CC)S(=O)(=O)c1ccc(Cl)c(NC(=O)COC(=O)C2CCCCC2)c1,.,.,-0.8,3.9,-1.9,0.7,0.7,1.6%,-5.0,.
CCOC(=O)c1[nH]c2cc3c(cc2c1NC(=O)CN1CCC(C)CC1)OCO3,-6.2,1.6,.,.,.,.,0.7,-1.9%,5.2,18.9
Cc1cc(C)nc(SC2CCCCC2O)n1 (stereo not given),4.0,-1.8,7.1,6.3,-0.6,.,0.5,15.0%,-4.8,-17.1
N=c1sccn1CC(=O)Nc1cc(S(=O)(=O)N2CCCC2)ccc1Cl,3.0,0.7,11.6,7.4,1.3,-0.6,0.1,-8.8%,2.8,-17.7
COCCN(C(=O)COC(=O)Cc1cccc(OC)c1)c1c(N)n(CC(C)C)c(=O)[nH]c1=O,4.8,-3.0,5.8,10.8,-1.3,-1.3,0.0,0.1%,-5.9,-11.3
O=[N+]([O-])c1cccc(CSc2nnc(Cc3ccccc3)n2-c2ccc(F)cc2)c1,?,-10.4,.,.,.,13.6,0.3,11.4%,5.9,14.6

Three of the entries above in order of their number in Ecoli rRNA inh OD600, ascending.
SMILES | Ecoli rRNA inh OD600
N=c1sccn1CC(=O)Nc1cc(S(=O)(=O)N2CCCC2)ccc1Cl | 7.4
COCCN(C(=O)COC(=O)Cc1cccc(OC)c1)c1c(N)n(CC(C)C)c(=O)[nH]c1=O | 10.8
O=C(COc1ccc2c(c1)OCO2)NCc1cccs1 | 13.5

The list goes on.
molecule,RanGTP-Impb inh,Calb FLC,Ecoli rRNA inh,Ecoli rRNA inh OD600,Ecoli rRNA inh RFP,MLL AF4-AF9 inh,Bfl-1 A1 inh,Vif A3G,Beta apoptosis,T cruzi repl
Nc1cc(=O)[nH]c(SCc2ccc(Cl)cc2)n1,-6.5,15.6,.,.,.,.,-0.7,0.1%,-0.7,3.1
C[C@@]12C(=O)Nc3ccc(Cl)cc3C(=O)N1[C@H]1c3cc(Br)ccc3OC[C@@H]1[C@@H]2c1ccccc1,.,.,13.1,-12.5,-2.2,-3.3,0.1,.,11.2,.
N/C(CSc1ccc(Cl)cc1)=N\NC(=O)c1ccncc1,-0.9,9.0,-7.0,-9.5,0.0,-0.5,1.2,-1.4%,-7.5,-34.9
CC(=O)NNC(=O)c1nc(-c2ccccc2)c(C)o1,1.3,-1.1,20.6,3.8,1.0,-2.4,0.9,.,-1.6,.
Fc1ccccc1COc1ccc(C(=S)N2CCCC2)cc1,2.5,-3.1,-16.1,-16.2,-9.7,2.2,-3.7,3.2%,6.6,4.2
CC(C)(O)C(=O)NN(C(=O)c1ccccc1)c1ccc2ccccc2c1,0.0,-12.0,.,.,.,.,1.1,-3.0%,-0.9,-12.8
CCn1c(=O)c(C(=O)Nc2ncccc2C)c(O)c2ccccc21,1.0,96.1*,-46.6,-58.3,-12.8,0.1,-0.6,7.8%,3.3,-18.8
CCCNC(=O)Cn1nc([N+](=O)[O-])c([N+](=O)[O-])c1C,?,6.6,.,.,.,.,0.6,-8.1%,-4.5,13.9
COc1ccc(S(=O)(=O)N(C)c2ccc(C(=O)Nc3cccnc3)cc2)cc1,0.2,0.9,-0.3,-18.9,-0.5,2.0,-0.6,.,-2.3,0.3
O=C(O)c1ccccc1C(=O)Nc1cc(C(F)(F)F)ccc1N1CCCC1,-3.2,8.2,0.8,6.5,-7.8,9.7,1.3,-8.3%,.,-4.9
COc1ccc([N+](=O)[O-])cc1-c1[nH]c(-c2ccc(C(=O)O)cc2)nc1-c1ccccc1,-2.5,32.5,2.6,0.2,-1.2,7.0,0.2,.,-9.8,0.8
O=C(OCCOc1cccc(Cl)c1)c1cc(S(=O)(=O)N2CCOCC2)ccc1F,-3.8,7.0,-13.9,-17.6,-3.9,-2.9,-0.1,6.3%,-8.0,-3.9
c1ccc(-c2cc3c(N4CCCC4)ncnc3s2)cc1,0.3,19.6,3.4,6.9,4.3,1.2,-0.1,-18.2%,15.5,0.5
Cc1ccc(NS(=O)(=O)c2ccc(NC(=O)c3cccc(NC(=O)C(C)C)c3)cc2)cc1,6.7,1.8,.,.,.,.,-0.4,1.4%,21.3,-1.4
CCN=C1SC(CC(=O)NCCc2ccc(OC)cc2)C(=O)N1CC (stereo not given),3.9,10.3,.,.,.,.,1.4,-2.8%,-0.5,-9.3
Nn1cnc2scc(-c3cccs3)c2c1=O,-1.6,-18.4,-0.7,-15.1,-5.1,-1.3,-1.0,-3.7%,0.2,-3.0
COc1ccc(CCNC(=O)Cn2cnc3c(cnn3-c3ccccc3Cl)c2=O)cc1OC,-2.6,20.3,.,.,.,.,2.1,-3.0%&2.6%,5.4,-0.3
Cc1oc(-c2ccc(Cl)cc2)nc1CN1CCCN(C(=O)c2ccco2)CC1,-1.4,-14.3,-1.1,-1.6,2.2,3.4,0.1,.,-2.8,16.5
Cc1ccc(Cn2ccc(NC(=O)c3nn(C)cc3[N+](=O)[O-])n2)cc1,1.4,15.8,-1.8,4.8,-4.8,3.8,-0.6,-4.8%,-24.9,?
CC(=O)Nc1ccc(C(=O)NNC(=O)c2ccccc2-n2cccc2)cc1,.,.,2.6,6.6,1.7,-5.5,-0.6,3.0%,5.9,.

Filtered by structure, the entries above containing a nitro group on carbon
molecule,RanGTP-Impb inh,Calb FLC,Ecoli rRNA inh,Ecoli rRNA inh OD600,Ecoli rRNA inh RFP,MLL AF4-AF9 inh,Bfl-1 A1 inh,Vif A3G,Beta apoptosis,T cruzi repl
O=[N+]([O-])c1cccc(CSc2nnc(Cc3ccccc3)n2-c2ccc(F)cc2)c1,?,-10.4,.,.,.,13.6,0.3,11.4%,5.9,14.6
CCCNC(=O)Cn1nc([N+](=O)[O-])c([N+](=O)[O-])c1C,?,6.6,.,.,.,.,0.6,-8.1%,-4.5,13.9
COc1ccc([N+](=O)[O-])cc1-c1[nH]c(-c2ccc(C(=O)O)cc2)nc1-c1ccccc1,-2.5,32.5,2.6,0.2,-1.2,7.0,0.2,.,-9.8,0.8
Cc1ccc(Cn2ccc(NC(=O)c3nn(C)cc3[N+](=O)[O-])n2)cc1,1.4,15.8,-1.8,4.8,-4.8,3.8,-0.6,-4.8%,-24.9,?

(cont.)
molecule,RanGTP-Impb inh,Calb FLC,Ecoli rRNA inh,Ecoli rRNA inh OD600,Ecoli rRNA inh RFP,MLL AF4-AF9 inh,Bfl-1 A1 inh,Vif A3G,Beta apoptosis,T cruzi repl
Cn1c(CNC(=O)c2cccs2)nnc1SCC(=O)Nc1ccccc1,-4.6,-2.3,.,.,.,.,?,-5.0%,-1.6,-1.2
O=C(CCN1CCOCC1)N1CCc2c([nH]c3ccccc23)C1c1cccc(Cl)c1 (stereo not given),1.5,20.7,-6.2,-2.9,-4.2,12.2,0.3,3.1%,7.4,12.1
O=C(CSCc1cccc(Br)c1)N=Nc1c(O)[nH]c2ccccc12,1.1,32.7,.,.,.,.,0.9,-6.7%,-5.1,3.3
COc1ccc(/C=C/C(=O)C2CC2)cc1Cn1nc(C)c([N+](=O)[O-])c1C,-2.5,37.8,3.6,-10.6,-0.8,2.5,0.0,-1.7%,6.4,0.0
CC1CN(CCOc2ccccc2[N+](=O)[O-])CC(C)O1 (stereo not given),-0.4,-11.7,10.9,3.9,-1.5,1.5,0.3,.,-4.1,1.9
N#CC1=C(N)N=C(SCc2cccc3ccccc23)C(C(N)=O)C12CCCCC2 (stereo not given),-0.6,8.2,.,.,.,.,0.4,3.5%,-5.7,11.0
COc1cc(/C=N/NC(=O)C(N)=O)ccc1OCC(=O)N1C(C)CCCC1C (stereo not given),?,15.5,11.2,8.1,0.7,-1.2,1.3,-4.0%,0.7,29.0
O=C(/C=C/c1ccc(Cl)c([N+](=O)[O-])c1)Nc1cccnc1,-1.2,9.8,.,.,.,.,-1.2,6.2%,-2.2,-1.4
Cc1ccc(Nc2nc(N)nc(CSc3nccn3C)n2)cc1,4.6,-5.5,.,.,.,.,-0.9,-4.7%,-0.3,-22.4
CCc1nn(CC(=O)N2CCN(C)CC2)c(=O)c2cccn12,2.7,-2.0,-1.1,-2.6,-4.0,10.0,0.2,.,4.3,-8.1
CCCc1nnc(NC(=O)C2CCCO2)s1 (stereo not given),-1.0,18.6,.,.,.,.,-1.7,3.1%,-5.7,-6.4
Cc1ccc(/C=N/N=C2/NC(=O)C(CC(=O)N3CCOCC3)S2)cc1 (stereo not given),0.1,12.6,10.0,6.3,-0.9,-37.2,-0.4,3.8%,-6.5,-11.3
COc1ccc(OCc2nnc(SC(C)C(=O)Nc3nccs3)n2-c2ccccc2)cc1 (stereo not given),-0.3,21.3,.,.,.,.,-0.3,0.3%,1.1,12.1
Cc1ccc(-c2csc3ncnc(Nc4ccc(N5CCOCC5)cc4)c23)cc1,-1.4,1.2,.,.,.,.,-2.3,15.3%,21.6,11.7
COc1cc(OC)c(OC)cc1/C=N/Nc1ccc(Cl)nn1,0.5,-1.7,6.3,10.7,-0.1,1.8,0.5,-0.8%,3.6,-22.9
COc1ccccc1Nc1nc(C)cs1,3.8&3.5,-2.5&2.6,.,.,.,.,-1.6&-3.9,1.8%&14.3%,-6.9&-9.8,4.1&-7.2
CCCNC(=O)c1ccc(COc2ccc(Cl)cc2)o1,2.8,-2.9,-17.1,-24.3,-3.9,-1.2,3.6,.,-9.7,14.9
Cc1ccccc1OCC(=O)Nc1nnc(COc2ccccc2)s1,-1.2,4.2,17.2,14.6,1.5,-0.6,-0.4,-1.1%,-6.7,-5.6

Screening results from PubChem BioAssay.

These rows are one share of the data; count on the stated rates, not on these rows.
